# HSV augment – HSV replication enhancement; 220,000 compounds, 0.005% hits; maximum fold increase; HSV replication augmentation in cells, fold increase;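 active = peak rise of 1.5-fold or more in the series; tested in PC3 cells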;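 note: first round at 10 µM; read as green reporter fluorescence; hits show the peak of a series up to 25 µM; 1 = signal of infected wells without compound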
# Insulin prom inh – TRM-6 insulin promoter activity inhibition. 130,000 compounds, 0.9% hits. TRM-6 cells (human fetal islet line), insulin promoter-eGFP reporter, imaging; reporter expression induced with tamoxifen. AID 1273. inhibition, % at 2 µM;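 active = inhibition above the mean plus 3 SD, with well images judged a real hit on visual review, cut at about 60% in these data, passing the limit was not always enough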
# PKD1 kinase inh – blocks activity of human protein kinase D1 | PKD1 kinase fluorescence polarization assay | inhibition, %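 (about 10 µM by stock and volumes)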 | 200,000 compounds, 0.056% hits | AID 797 | Q15139;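 active = inhibition of 50% or more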;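 note: controls were vehicle for no effect and a reference inhibitor for full effect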
# Target sequence (Q15139 whole entry, looked up): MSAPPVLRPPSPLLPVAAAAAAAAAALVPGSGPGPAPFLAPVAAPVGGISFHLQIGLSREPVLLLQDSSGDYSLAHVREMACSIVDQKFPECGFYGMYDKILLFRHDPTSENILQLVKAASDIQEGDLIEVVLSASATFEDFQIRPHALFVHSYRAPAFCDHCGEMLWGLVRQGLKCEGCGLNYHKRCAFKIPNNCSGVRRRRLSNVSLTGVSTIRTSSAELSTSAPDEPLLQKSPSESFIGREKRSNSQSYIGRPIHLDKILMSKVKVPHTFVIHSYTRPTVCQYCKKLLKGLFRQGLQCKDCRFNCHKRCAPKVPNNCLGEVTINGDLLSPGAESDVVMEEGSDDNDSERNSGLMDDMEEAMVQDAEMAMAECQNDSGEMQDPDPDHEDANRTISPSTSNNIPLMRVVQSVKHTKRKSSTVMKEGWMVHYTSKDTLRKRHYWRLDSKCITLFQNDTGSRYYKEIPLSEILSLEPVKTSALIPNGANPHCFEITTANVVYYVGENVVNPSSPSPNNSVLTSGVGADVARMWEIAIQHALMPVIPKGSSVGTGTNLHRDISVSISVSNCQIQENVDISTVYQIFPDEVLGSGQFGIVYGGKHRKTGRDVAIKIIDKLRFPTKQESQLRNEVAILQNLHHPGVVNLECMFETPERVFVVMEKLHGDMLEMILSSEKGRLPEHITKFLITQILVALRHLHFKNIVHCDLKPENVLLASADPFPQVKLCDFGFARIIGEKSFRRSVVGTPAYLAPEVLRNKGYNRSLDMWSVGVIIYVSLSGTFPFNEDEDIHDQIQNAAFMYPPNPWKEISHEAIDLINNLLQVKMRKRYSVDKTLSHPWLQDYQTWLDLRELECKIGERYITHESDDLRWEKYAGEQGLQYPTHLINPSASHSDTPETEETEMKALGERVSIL
# GALR2 agonist – activates the human galanin receptor 2; 140,000 compounds, 0.48% hits; O43603; GALR2-expressing cells, agonist activation read-out; AID 803; activation, %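 (tested at 5 µM)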;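 active = above mean plus 3 SD of all compounds, about 5% in these data, not always enough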;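 note: 0% = vehicle buffer wells and 100% = reference agonist at full effect; tested in CHO reporter cells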
# RGS16-Gao HTS – modulates binding between human RGS16 and Galphao. bead-based flow cytometry RGS16-Galphao binding, fluorescence; actives lie on both sides. binding response (% of control), % at 10 µM. 220,000 compounds, 0.38% hits. AID 1441;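 active = below 25% or above 175%, edge rows of some plates excepted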;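 note: Galphao activated by GDP with aluminum fluoride before binding; 100% = wells without compound and 0% = beads without RGS; some results beyond the cut were filed as inactive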
# Insulin prom inh cell count – recorded beside Insulin prom inh, whose call it bears; normalized cell count, %; measured here: cell count, toxicity; reference of the scale not given here;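 cells exposed to compound for 48 h; stained nuclei by imaging scaled within each plate; lower means fewer cells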
# HSV augment primary fold – also measured in HSV augment; calls as there; fold increase; compound at 10 µM; measured here: primary screen fold increase 10 uM; tested in PC3 cells;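 GFP signal in the first replicate; 1 = infected wells without compound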
# * marks the source's active call; other numbers are inactive results; i = inactive; · = no result given.
SMILES,HSV augment,HSV augment primary fold,Insulin prom inh,Insulin prom inh cell count,PKD1 kinase inh,GALR2 agonist,RGS16-Gao HTS
Cn1c(=O)c(NCCO)c2c3c(cccc31)C(=O)c1ccccc1-2,·,·,-68,100,144*,1.1,107
CC(c1ccc(C(C)(C)C)cc1)S(=O)CC(O)CO (centres undefined),·,·,8,83,-2,0.1,112
CCn1c(NC(=S)Nc2ccccc2)nc2ccccc21,i,0.74,-7,113,-5,-1.6,101
CC(Sc1ccc(S(=O)(=O)N2CCOCC2)cc1[N+](=O)[O-])C(=O)O (centres undefined),i,0.93,38,52,6,-1.9,105
CCOc1ccc(C2/C(=C(/O)c3ccc(F)cc3)C(=O)C(=O)N2CCCN(C)C)cc1 (centres undefined),i,0.96,-43,46,2,0.2,98
O=C(Cc1ccccc1)N/N=C/c1ccccn1,i,0.99,-17,93,5,-1.6,·
CC(C)(C#CC(O)(c1ccccc1)c1ccccc1)N1CCCC1,i,0.99,19,61,-11,·,98
N#C/C(=C\c1cc2c(cc1Br)OCO2)C(=O)NCC1CCCO1 (centres undefined),i,0.89,·,·,·,·,110
Cc1c(C#N)c(N)nc2c3c(sc12)NC(=O)CC3c1ccccc1 (centres undefined),i,0.95,11,68,-14,-0.1,82
C=CC(=O)NCCCc1cc(C(C)(C)C)c(O)c(C(C)(C)C)c1,i,1,·,·,3,-0.6,102
Cc1noc(C)c1C(=O)OCC(=O)c1cc(C)n(Cc2ccccc2Cl)c1C,i,0.81,·,·,-11,-3.5,120
Cc1[nH]c2ccc(OCc3ccccc3)cc2c1CCN1C(=O)OC(C)(C)C1(C)O (centres undefined),i,0.64,·,·,-3,-2.7,112
Cc1ccc(S(=O)(=O)Nc2ccc3ncccc3c2)cc1,i,1,·,·,-11,-2.7,103
CCN(CC)S(=O)(=O)c1ccc(/C=C/C(=O)OCC(=O)Nc2ccc(C(N)=O)cc2)cc1,i,0.99,·,·,-4,·,99
COc1cc(CCCN2C(=S)NC[C@@H]2Cc2ccccc2)cc(OC)c1OC,i,0.87,·,·,5,·,105
Cc1cc(C)n(/N=C/c2cc([N+](=O)[O-])ccc2O)c(=O)c1,i,1.1,·,·,-1,·,96
O=C1C2C3CCC(C3)C2C(=O)N1CNc1ccc(F)cc1 (centres undefined),i,0.91,i,53,-5,-0.5,108
O=[n+]1cc(-c2ccc(F)cc2)n([O-])c2c1CCC2,·,·,-10,120,6,-3.1,134
O=C(Nc1ccc(NC(=O)c2cccs2)cn1)c1ccco1,i,0.85,-21,104,5,1.6,103
O=C(O)C1CCCCC1C(=O)Nc1ccccc1Cl (centres undefined),i,0.99,12,120,-5,-3.9,97
CC(NC(=O)Cn1c(NCCO)nc2ccccc21)C1CC2CCC1C2 (centres undefined),i,1,·,·,5,·,102
CCOc1ccc(CONS(=O)(=O)c2ccc(NC(C)=O)cc2)cc1Cl,i,0.99,12,65,-7,-1.1,121
CC1(C)C[C@@H]2C[C@@](C)(CN2C(=O)c2ccccc2)C1,i,1.2,·,·,·,·,104
COc1ccc(NC(=O)CSc2nc(C)c3c(c2C#N)CCCC3)cc1,i,0.73,-15,159,0,-1.4,113
CCCOc1ccc(-c2nn(-c3ccccc3)cc2/C=C2\SC(N)=NC2=O)cc1C,i,1,26,97,-1,0.4,101

# Remaining list, next part:
SMILES,HSV augment,HSV augment primary fold,Insulin prom inh,Insulin prom inh cell count,PKD1 kinase inh,GALR2 agonist,RGS16-Gao HTS
Cc1cccc(N2CCN(C(=S)NCc3ccco3)CC2)c1C,i,1,4,45,-8,-1.8,92
O=C(O)CCC(=O)NCCc1cccc(Cl)c1,i,0.96,17,114,-6,·,102
COc1ccc(CCNC(=O)NC23CC4CC(CC(C4)C2)C3)cc1,i,0.88,14,121,-6,0.8,105
Cc1ccc(C(=O)N2CCCC(c3ccccc3)=N2)cc1,i,0.99,-19,131,-5,·,103
CNC(=O)NC(=O)CSc1nnc(C(F)(F)F)n1C,i,0.95,14,91,-3,-0.3,108
COc1ccc2nc(NC(=O)CSc3nnc(-c4ccoc4C)n3C)sc2c1,i,0.88,-33,119,1,-2.0,98
O=C(Nc1ccccc1C(=O)O)c1cccc(NC(=O)c2ccc(Br)o2)c1,i,0.95,62,119,1,-0.7,113
Nc1nn(-c2ccccc2)c(N)c1N=Nc1ccc2c(c1)OCO2,i,0.65,-123,52,-10,0.4,88
CCCCNC(=O)Nc1c(C)cc(SC#N)cc1C,i,0.99,·,·,-5,·,98
Cc1ccccc1C(=O)NC1CCS(=O)(=O)C1 (centres undefined),·,·,29,91,-8,-1.1,113
N#Cc1c(NC(=O)CSc2nc3ccccc3s2)sc2c1CCCC2,i,1.1,27,86,-3,-1.1,107
Oc1ccccc1C1N=C(c2ccccc2)NC(c2ccccc2)=N1,i,0.93,-33,123,-2,-0.5,104
O=C(CCNc1n[nH]c(=O)[nH]c1=O)N/N=C/c1ccc(Cl)cc1,i,0.81,·,·,-2,·,104
Nc1nnc(CCCCc2cccs2)o1,i,1.1,7,110,-2,-2.9,98
CC(C)Nc1nc(NC(C)C)nc(N(C)n2cnnc2)n1,i,0.93,27,43,3,-2.0,104
COc1ccc(C2=NC(C(F)(F)F)(C(F)(F)F)c3c(n(C)c(=O)n(C)c3=O)N2)cc1,i,0.98,·,·,-15,-0.9,64
CC(=O)c1ccc(NC(=O)c2ccn[nH]2)cc1,i,0.8,-62,76,-6,-1.2,97
C=CCn1cc(C(=O)NCC2CCCO2)c(=O)c2cc(S(=O)(=O)N3CCCCCC3)ccc21 (centres undefined),i,0.86,·,·,0,-0.8,104
CC(=O)Nc1ccc(NC(=O)c2cc(-n3cnnc3)ccc2Cl)cc1,i,0.94,·,·,-3,·,97
CC/C(=N\NC(=S)Nc1cccc(C)c1)c1ccccc1,i,1,20,134,9,·,102
Cc1ccc(-c2cc(C(=O)N3CCCc4ccccc43)no2)cc1,i,0.94,32,95,-2,·,103
CC(=O)N1N=C(c2ccc3ccccc3c2)OC12CCCC2,i,1,·,·,·,·,95
CCOC(=O)n1c(=O)n(Cc2ccccc2C)c2ccccc21,i,0.89,0,119,1,·,100
CCc1ccc(OCC(=O)N2CCN=C2c2ccccc2)cc1,i,0.88,-13,103,1,-2.1,101
CC(O)CNCc1ccc(Cl)cc1Cl (centres undefined),i,1,·,·,8,·,103

# Next section, overlapping the part above by 6 compounds.
SMILES,HSV augment,HSV augment primary fold,Insulin prom inh,Insulin prom inh cell count,PKD1 kinase inh,GALR2 agonist,RGS16-Gao HTS
CC/C(=N\NC(=S)Nc1cccc(C)c1)c1ccccc1,i,1,20,134,9,·,102
Cc1ccc(-c2cc(C(=O)N3CCCc4ccccc43)no2)cc1,i,0.94,32,95,-2,·,103
CC(=O)N1N=C(c2ccc3ccccc3c2)OC12CCCC2,i,1,·,·,·,·,95
CCOC(=O)n1c(=O)n(Cc2ccccc2C)c2ccccc21,i,0.89,0,119,1,·,100
CCc1ccc(OCC(=O)N2CCN=C2c2ccccc2)cc1,i,0.88,-13,103,1,-2.1,101
CC(O)CNCc1ccc(Cl)cc1Cl (centres undefined),i,1,·,·,8,·,103
O=C(Cn1c2ccccc2c(=O)c2ccccc21)Nc1ccccc1F,i,0.88,·,·,-3,15*,107
O=c1cc(O)nc(-c2ccc(Cl)cc2)s1,i,1.2,-68,116,4,·,97
O=C1c2ccccc2NC2(CCCCC2)N1c1ccc(O)cc1,i,0.87,47,98,3,-0.8,101
COc1c(F)c(F)c(-c2csc(N)n2)c(F)c1F,·,·,-2,127,-18,-0.8,·
COc1ccc(OC)c(CNC(=O)CCN2C(=O)COc3ccccc32)c1,i,0.86,33,25,-1,1.2,111
COc1cc(NC(=O)CCCc2c[nH]c3ccccc23)cc(OC)c1,i,0.98,·,·,-3,0.7,101
CCOc1ccc(C(=O)NC(=S)Nc2ncccc2C)cc1[N+](=O)[O-],i,0.9,-12,187,-10,-0.5,109
COc1ccc(S(=O)(=O)NNC(=O)c2cccs2)cc1,i,0.99,27,98,-5,·,97
CC(=O)NNc1nc(-c2ccc(C)cc2)cs1,i,0.94,·,·,-3,·,101
N#CC(C#N)=CC1=C2OC(c3ccccc3)=CC(c3ccccc3)=C2CCC1,i,0.98,-7,127,-1,-0.4,113
O=C(NCc1ccccc1)C1=C[C@@H](c2coc3ccccc3c2=O)C[C@@H](OCCCCO)O1,i,0.95,·,·,-4,·,98
COC(=O)c1cccc(NC(=O)c2cccnc2C(=O)O)c1C,i,1,·,·,3,·,102
Cc1ccc(-n2c(C)cc(/C=C3/C(=N)N4C(c5ccccc5)=CSC4=NC3=O)c2C)cc1,i,1,·,·,-4,-0.3,107
CN1CCN(C(=O)c2ccccc2NC(=O)CCN2C(=O)c3ccccc3C2=O)CC1,i,0.98,62,196,-6,-2.1,105
O=C(c1ccccc1)c1ccc(OC(=O)N2CCCC2)cc1,i,0.92,33,102,-18,-0.7,30
COc1cccc(OCC(Cn2cnc3ccccc32)OC(C)=O)c1 (centres undefined),i,0.87,-5,112,3,·,99
C[N+](C)(C)CCCCCCC(=O)/C=N/O,i,0.96,11,56,-6,-1.2,102
C=CCn1c(SCC(=O)N2CCc3ccccc3C2)nnc1-c1ccncc1,i,0.88,36,107,1,-1.1,110
COc1ccc2nc(NC(=O)Cn3cnc4c(=O)n(C)c(=O)n(C)c43)sc2c1,i,0.93,-24,120,-6,-1.4,96
COc1ccc(CCn2c(-c3ccccc3)nc3c(c(=O)c4ccccc4n3C)c2=O)cc1,i,0.98,44,63,-14,-0.8,124
c1ccc(CSc2n[nH]c(-c3ccco3)n2)cc1,i,1,14,90,-7,-2.2,101
O=C(Cn1cnc2ccccc2c1=O)NCCC(=O)N1CCN(c2ccccc2)CC1,i,0.87,29,102,2,-0.5,100
CC(C)(C)NC(=O)C(c1cccs1)N(CC1CCCO1)C(=O)Cn1nnc(-c2cccs2)n1 (centres undefined),i,0.89,-34,53,-3,-0.9,186
Fc1ccccc1/C=N/Nc1nn[nH]n1,i,1,·,·,-2,-2.2,109
CC(C)(C)C(=O)N1CCN(c2nc3ccccc3o2)CC1,i,0.96,·,·,-1,·,101

# (further entries)
SMILES,HSV augment,HSV augment primary fold,Insulin prom inh,Insulin prom inh cell count,PKD1 kinase inh,GALR2 agonist,RGS16-Gao HTS
CCCCc1nc2sc3c(=O)n(N)cnc3c2c2c1CCCC2,i,0.79,·,·,-4,-1.8,116
COC(=O)c1sccc1NC(=S)N1CCCCC1,i,1.3,21,134,-2,-2.8,86
CCOC(=O)N/N=C\c1ccc(-c2cc(Cl)ccc2Cl)o1,i,0.99,·,·,-7,·,103
O=C(O)c1cccc(-c2ccc(/C=N/n3cnc4sc5c(c4c3=O)CCCC5)o2)c1,i,0.95,·,·,·,·,104
Cc1ccc(NC(=O)CN2C(=O)NC(Cc3ccccc3)C2=O)cc1 (centres undefined),i,0.91,-38,61,0,-1.0,·
CCCCNC(=S)NC1CCCC1,i,1.3,·,·,4,0.0,96
Cc1nnc2sc(SCc3ccc(Br)cc3)nn2c1=O,i,0.95,·,·,-6,·,89
COc1ccc(C2(C(=O)c3ccccc3)C(=O)c3ccccc3C2=O)cc1,i,1,·,·,·,·,95
Cc1ccc(OC(=O)C23CC4CC(CC(C4)C2)C3)c(C)n1,i,0.95,-7,111,-7,-2.6,101
COc1ccc(CN=CC2=C(O)CC(C)(C)CC2=O)cc1,i,0.95,18,185,-6,-0.4,103
COc1cc(OC)cc(C(=O)n2cnnc2N)c1,i,0.91,-19,104,-8,-3.1,100
NC(=O)CSc1nnc2ccc(-c3ccc(F)cc3)nn12,i,0.92,·,·,-4,·,103
COc1ccc(N2CCN(C(=O)c3ccc(N(C)S(=O)(=O)c4ccc(OC)cc4)cc3)CC2)cc1,i,0.85,·,·,-4,·,95
Cc1nc(CSc2nnc(N)s2)cs1,i,0.89,64,112,6,·,112
Cc1cc(C)nc(NC2=NCCN2C(=O)NC2CCCCC2)n1,i,0.93,-15,44,-2,-0.1,102
CCOC(=O)CNC(=S)N(CCCN1CCCCC1)Cc1cccs1,i,0.89,·,·,-2,·,95
O=S(=O)(NCC(O)c1ccccc1)c1ccc(-c2ccccn2)s1 (centres undefined),i,1,·,·,·,·,100
CC(NC(=O)CCSCCC(=O)NC(C)c1ccccc1)c1ccccc1 (centres undefined),i,0.97,27,41,0,-1.5,107
O=C(c1ccc(F)cc1)C(C(=O)N1CCCCC1)n1ccccc1=O (centres undefined),i,1,·,·,10,·,102
COc1ccc(NC(=O)CSc2nnc(Cn3c(=O)sc4ccccc43)n2C)cc1OC,i,0.93,·,·,-3,-0.7,103

# Ordered by SMILES length (lowest first): some entries from above
SMILES,HSV augment,HSV augment primary fold,Insulin prom inh,Insulin prom inh cell count,PKD1 kinase inh,GALR2 agonist,RGS16-Gao HTS
CCOC(=O)CNC(=S)N(CCCN1CCCCC1)Cc1cccs1,i,0.89,·,·,-2,·,95
O=S(=O)(NCC(O)c1ccccc1)c1ccc(-c2ccccn2)s1 (centres undefined),i,1,·,·,·,·,100
COc1ccc(C2(C(=O)c3ccccc3)C(=O)c3ccccc3C2=O)cc1,i,1,·,·,·,·,95

# Compound activity: PubChem, several laboratories
